Sa growth inh = S. aureus growth inhibition. relative growth, % (test concentration not listed). 170,000 compounds, 0.53% hits. AID 720641. S. aureus RN4220 growth, OD600, 20 h, 42 °C; stronger effect = lower value;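 active means growth at 42 °C up to 50% and 20 or more points under that at 30 °C, or under 10% at both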;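 further: 300 nL library stock went into each well; scaled to the means of positive and negative controls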
HCMV NEC inh = cytomegalovirus nuclear egress complex inhibition | HTRF UL50-UL53 interaction, normalized percent inhibition | inhibition, % (no concentration beside the values) | 190,000 compounds, 0.15% hits | AID 1918969;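 active means both replicates at 50% or more, plus weaker picks with an unusually low signal ratio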;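 further: stock transfer was 100 nL into about 20 µL; 0% = negative control wells and 100% = wells with untagged competitor protein; inactives centre near -12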
GIV-Gai inh = inhibitors of GIV GBA-motif binding to rat Galpha-i3; Galpha-i3/FITC-GIV peptide fluorescence polarization, 90 min; stronger effect = lower value; scaled: aluminum fluoride 0%, vehicle 100%; percent of control (FP), % (concentration not given with the values); 210,000 compounds, 0.42% hits;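 active means replicate mean at 85% of control or lower, very high polarization wells dropped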;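 further: wells of about 15 µL received 100 nL stock; the first replicate is given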
Target sequence (P08753 whole entry, looked up): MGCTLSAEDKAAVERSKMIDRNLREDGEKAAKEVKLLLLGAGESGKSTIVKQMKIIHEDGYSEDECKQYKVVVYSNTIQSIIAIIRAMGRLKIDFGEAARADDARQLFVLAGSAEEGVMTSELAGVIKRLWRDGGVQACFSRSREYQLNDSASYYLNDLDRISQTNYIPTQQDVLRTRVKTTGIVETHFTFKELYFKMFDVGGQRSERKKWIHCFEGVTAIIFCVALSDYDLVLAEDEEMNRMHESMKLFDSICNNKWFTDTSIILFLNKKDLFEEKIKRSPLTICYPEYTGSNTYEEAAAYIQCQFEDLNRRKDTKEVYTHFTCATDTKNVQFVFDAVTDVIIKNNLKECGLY
Sa growth inh second temp = recorded beside Sa growth inh, whose call it bears; relative growth, %; measured here: growth at 30 °C;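 optical density after 20 h as mean of two plates; 100% = untreated growth and lower means inhibition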
Numbers without * were called inactive; . = not tested or not shown; & = joins results of further samples.

SMILES	Sa growth inh	Sa growth inh second temp	HCMV NEC inh	GIV-Gai inh
COc1ccc(CCNc2cc(C)nc(N)n2)cc1OC	88	90	-5	102
CNC(=S)NC1CC2CCC(C1)N2Cc1ccccc1 (stereo not given)	102	87	-9	104
COc1ccc(-c2cc(C(=O)Nc3sc4c(c3C#N)CCCC4)no2)cc1OC	105	89	-29	104
CC(C)(C)C1CCc2nc(NC(=O)Cc3cn4ccsc4n3)sc2C1 (stereo not given)	114	90	-27	.
O=C(Cn1c(CN2CCOCC2)nc2sc3c(c2c1=O)CCC3)N1CCc2ccccc21	93	98	-14	.
COc1ccc(NC(=O)C(c2ccc(OC)cc2)N(C)C(=O)c2cnccn2)cc1 (stereo not given)	104	87	0	101
CCn1c(=O)c2cc(C(=O)N(C)c3cccc(C(F)(F)F)c3)sc2c2ccccc21	107	95	.	102
Cc1csc2nc(O)c(C(=O)NCC(C)O)c(=O)n12 (stereo not given)	81	69	-4	105
CCN(CC)C(=O)CSc1ccc2c(c1)OCCO2	97	92	-10	.
C=CCc1cc(C=C2C(=O)NC(=O)NC2=O)cc(OC)c1OC	99	98	60*	107
OCC(O)Cn1c(SCCSc2nc3ccccc3n2CC(O)CO)nc2ccccc21 (stereo not given)	105	84	-8	102
CCn1cc(C(=O)NCCc2ccc(Cl)cc2)c(=O)c2cc(S(=O)(=O)N3CCCCCC3)ccc21	106	79	-4	99
CCCn1c(SCCCc2ccccc2)nc2c1c(=O)[nH]c(=O)n2C	98	72	.	102
Cc1sc(Cc2ccc(Cl)cc2)nc1O	116	75	-6	.
CC(C)NC(=O)C1CCCN(C(=O)N2CCOc3ccccc32)C1 (stereo not given)	98	92	-3	105
COc1ccccc1-c1noc(CCCn2c(=O)[nH]c3cc4c(cc3c2=O)OCO4)n1	.	.	2	100
COc1cccc(CNCc2ccccc2OC)c1	95	88	6	103
COc1ccccc1NC(=O)COC(=O)C12CC3CC(CC(C3)C1)C2	116	84	-24	.
CC(C)Oc1ccc(CNC(=O)c2cccc(NC(=O)c3nsc4ccccc34)c2)cc1	92	85	.	102
O=C(O)CCCCC1SCC2NC(=O)NC21 (stereo not given)	85	82	-41	.
Cc1nnc2n1NC(c1ccc(Cl)cc1)=CS2	72	76	-38	99
CC(N=C1NS(=O)(=O)c2ccccc21)c1ccc(F)cc1 (stereo not given)	94	91	-2	.
CC(C)(C)c1ccc(-c2nnnn2-c2ccccc2)cc1	112	94	-3	.
Cc1nc(N2CCOCC2)c2c(C)c(C(=O)N3CCN(Cc4ccc5c(c4)OCO5)CC3)sc2n1	.	.	-22	108
Cc1ccc(-c2ccc(CCC(=O)O)o2)cc1	-1.4*	-1.1*	.	103

Next section.
SMILES	Sa growth inh	Sa growth inh second temp	HCMV NEC inh	GIV-Gai inh
CCN1CCOC(CC(=O)Nc2ccccc2C)C1=O (stereo not given)	21	6	.	100
Fc1ccc(-c2csc(NC3=NCCC3)n2)cc1	88	52	-15	.
CN(CCCNc1nn2nnnc2c2ccccc12)Cc1ccccc1	.	.	-14	97
CCC(=O)c1c[nH]c2ccccc12	121&105	91&78	-1&-10	107&100
CCOC(=O)c1c(C)[nH]c(C)c1S(=O)(=O)N1CCC(C(=O)Nc2ccc(F)cc2F)CC1	79	86	-12	100&97
Nc1nnc(SCC(=O)N2CCN(c3ccccc3)CC2)s1	103	75	-7	106
CCc1ccc(NC(=O)N(Cc2cccnc2)Cc2ccco2)cc1	105	85	.	101
CN1CCN(CC(=O)CCN2C(=O)/C(=C/c3ccccc3Cl)SC2=S)CC1	115	95	-67	119
Cc1ccc(NC(=O)CCCn2c(=O)c3cccn3c3ccccc32)cc1Cl	100	89	-10	98
CN(C(=O)c1cc2c(Cl)nc3ccccc3c2s1)c1cccc(C(F)(F)F)c1	106	89	-38	103
Cc1ccc(Oc2ccc3c(c2)C(=O)N(c2cccc(O)c2)C3=O)cc1	100	99	-6	103
CCOc1ccc(C(=O)Nc2ccccc2-c2nc3ccccc3[nH]2)cc1	.	.	-6	95
Cc1nnc(N2CCC(C(=O)NCc3ccccn3)CC2)c2nn(-c3ccc(Cl)cc3)c(C)c12	.	.	10	94
Cc1nn(CCC(=O)NCc2ccc(N(C)C)cc2)c(=O)c2nn(-c3ccccc3)c(C)c12	97	94	.	100
Cc1csc(NC(=O)CCc2c(C)nc3c(c(C)nn3-c3ccccc3)c2C)n1	90	90	2	102
O=c1[nH]c2cc3c(cc2cc1CN(Cc1nnnn1CCc1ccccc1)C1CCCC1)OCCO3	119	102	-25	103
O=C(NC(=S)c1c(-c2ccccc2)cc2ccccn12)c1ccccc1	89	84	.	110
CCCN(CCC)C(=O)CN1C(=O)N(c2ccc(OCC)cc2)C2CS(=O)(=O)CC21 (stereo not given)	.	.	-8	99
Cc1ccc(NC(=O)CN2C(=O)/C(=C/c3ccccc3)SC2=S)cc1C	.	.	-16	101
COc1ccc(NC(=O)C2(N(Cc3ccccc3)C(=O)Cn3nnnc3N)CCCCC2)cc1	103	95	15	103
CCC(=O)Nc1ccc(C(=O)CN2C(=O)NC3(CCCc4ccccc43)C2=O)cc1 (stereo not given)	107	85	1	.
CSc1nc(C)[nH]c(=O)c1C#N	101	91	-15	102
CC(=O)Nc1c(-c2ccccc2)oc2ccccc2c1=O	110	77	28	101
O=C(c1nn2c(C(F)(F)F)cc(-c3ccccc3)nc2c1Br)N1CCN2CCCC2C1 (stereo not given)	95	80	.	96
N#Cc1ccc(NC(=O)COCC(=O)O)cc1	107	84	-14	103

Shown with values under each structure: part of the list above
Results follow in this order: Sa growth inh	Sa growth inh second temp	HCMV NEC inh	GIV-Gai inh
Cc1ccc(NC(=O)CN2C(=O)/C(=C/c3ccccc3)SC2=S)cc1C
 : .	.	-16	101
CN(CCCNc1nn2nnnc2c2ccccc12)Cc1ccccc1
 : .	.	-14	97
Cc1ccc(Oc2ccc3c(c2)C(=O)N(c2cccc(O)c2)C3=O)cc1
 : 100	99	-6	103

Some entries already given, reduced to Sa growth inh second temp, GIV-Gai inh and HCMV NEC inh:
compound,Sa growth inh second temp,GIV-Gai inh,HCMV NEC inh
COc1ccc(NC(=O)C2(N(Cc3ccccc3)C(=O)Cn3nnnc3N)CCCCC2)cc1,95,103,15
CCC(=O)Nc1ccc(C(=O)CN2C(=O)NC3(CCCc4ccccc43)C2=O)cc1 (stereo not given),85,.,1
CSc1nc(C)[nH]c(=O)c1C#N,91,102,-15
CC(=O)Nc1c(-c2ccccc2)oc2ccccc2c1=O,77,101,28

(cont.)
SMILES	Sa growth inh	Sa growth inh second temp	HCMV NEC inh	GIV-Gai inh
c1ccc(-c2nc(SCC3CCOCO3)oc2-c2ccccc2)cc1 (stereo not given)	64	71	-8	.
CCCN(c1ccccc1F)S(=O)(=O)c1ccc2c(c1)C(C)(C)C(=O)N2C	89	87	.	103
CCOC(=O)CSc1nnc(CSc2nc(N)c3c(C)c(C)sc3n2)n1-c1ccccc1	102	96	6	110
Cc1oc(-c2ccc(Cl)cc2)nc1Cn1nc(C)c2c(C)onc2c1=O	.	.	-20	108
COCCNC(=O)c1cc2ncc(Br)cn2n1	81	105	-68	106
Cc1cccc(NC(=O)CCS(=O)(=O)c2ccc3c(c2)NC(=O)CS3)c1C	.	.	-8	119
Cc1noc2ncnc(SCC(=O)Nc3cc(Cl)cc(Cl)c3)c12	95	87	-24	102
Cc1ccc(N=Cc2c[nH]c3ccccc23)nc1	88	97	-9	.
O=C(Cn1c(=O)n(-c2ccccc2)c(=O)c2c3c(sc21)CCCC3)Nc1cccc(F)c1	98	98	-8	105
FC(F)(F)c1cccc(Oc2ccc3nnc(-c4ccccc4)n3n2)c1	118	98	-2	98
CC(=O)N1CCN(CC(O)COCc2ccccc2F)CC1 (stereo not given)	104	85	-1	.
COC(=O)c1ccccc1NC(=O)CSc1ncc(S(=O)(=O)c2ccc(Br)cc2)c(=O)[nH]1	.	.	-36	110
COc1ccc2cc3cc(C(=O)N4CCC(Cc5ccccc5)CC4)oc3nc2c1	.	.	-38	101
Cc1ccc(C(=O)NCC(c2ccco2)S(=O)(=O)c2cccs2)cc1C (stereo not given)	100	89	.	95
O=C(CCn1cnc2onc(-c3cccc(F)c3)c2c1=O)NCc1cccc(Cl)c1	.	.	-1	104
CC1=C(C(=O)Nc2ccc(C)cc2)C(c2ccc(Br)cc2)n2nnnc2N1 (stereo not given)	.	.	-21	103
CCc1cccc(C)c1NC(=O)Cn1nnc(-c2nc(-c3ccccc3F)no2)c1N	109	93	.	110
O=C1c2ccccc2CN1CCNS(=O)(=O)c1ccc2oc3ccccc3c2c1	128	99	8	.
Cc1cc2nc(CSc3nnc(NC(=O)Nc4ccc(F)cc4)s3)cc(=O)n2o1	.	.	-23	106
Cc1cc(Cl)ccc1OCC(=O)Nc1c(Cl)ccc2nsnc12	87	99	-33	100
CCc1ccc(NS(=O)(=O)c2ccc3[nH]cc(C(=O)N(C)Cc4ccco4)c(=O)c3c2)cc1	99	83	-9	104
O=C(COc1c(Br)cc(Br)c2cccnc12)N1CCCCC1	70	55	-32	.
C=CCc1c(C)nc(SC)nc1Nc1ccc(C)cc1	71	53	-13	99
CN1C(=O)N(C)C(=O)C(C2CCC3OCC2O3)(C2CCC3OCC2O3)C1=O (stereo not given)	90	76	-11	.
COC(=O)c1ccc(/C=C2\SC(=O)N(Cc3ccc(Br)cc3)C2=O)cc1	.	.	-1	107

Full records from above:
Cc1nc(N2CCOCC2)c2c(C)c(C(=O)N3CCN(Cc4ccc5c(c4)OCO5)CC3)sc2n1 across the screens: Sa growth inh = .; Sa growth inh second temp = .; HCMV NEC inh = -22; GIV-Gai inh = 108
CCOc1ccc(C(=O)Nc2ccccc2-c2nc3ccccc3[nH]2)cc1 across the screens: Sa growth inh = .; Sa growth inh second temp = .; HCMV NEC inh = -6; GIV-Gai inh = 95

Next compounds:
SMILES	Sa growth inh	Sa growth inh second temp	HCMV NEC inh	GIV-Gai inh
CCc1ccc(NC(=O)C2CC(=O)Nc3ncnn32)cc1 (stereo not given)	87	83	-10	98
N#Cc1ccc(OCCO)cc1	105	89	-4	103
C=CCNC(=O)C1CCCN(S(C)(=O)=O)C1 (stereo not given)	94	89	.	114
O=S1(=O)CC(O)C(NCCc2ccccc2)C1 (stereo not given)	120	91	-8	102
COc1ccc(C(=O)OC(C)CN2CCN(C)CC2)cc1 (stereo not given)	98	79	-5	.
Cc1c(C(=O)NCc2ccc(OC(C)C)cc2)sc2ncnc(N(C)C3CCCCC3)c12	128	89	.	101
O=C(Cn1c(=O)nc(-c2ccccc2)c2ccccc21)N1CCN(c2ccccc2F)CC1	.	.	-53	107
CC(C)c1ccc(NC(=O)CSc2n[nH]c(=O)n2Cc2ccco2)cc1	95	95	-16	104
CCOCC(=O)Nc1cccc(Br)c1	119	94	-11	104
Cc1nn(CCCC(=O)N(C)Cc2ccccc2)c(=O)c2cc3sccc3n12	100	92	.	101
CC1CCc2c(sc3ncnc(NC4CC4)c23)C1 (stereo not given)	111	93	8	.
O=C1C(=O)N(CCCN2CCOCC2)C(c2ccccc2)/C1=C(\O)c1ccc(S(=O)(=O)N2CCOCC2)cc1 (stereo not given)	92	93	-10	106
O=C(Nc1ccc(Br)cc1)C1CCN(S(=O)(=O)c2cccc3nsnc23)CC1	101	92	-24	104
CCOc1ccc(NC(=O)c2c(Nc3ccccc3C)sc(C(=O)c3ccccc3)c2N)cc1	106	75	.	102
COC(=O)/C=C1/N/C(=N/c2nc3cc(C)ccc3o2)NC1=O	100	87	-5	100
CCOc1ccc(CCNC(=O)c2cc3c(=O)n(C)c4ccccc4c3s2)cc1OCC	108	83	-24	97
CC(Oc1ccccc1)C(=O)N1CCCCCC1 (stereo not given)	93	78	-16	99
COC(=O)c1cccc(COC(=O)c2cccnc2SC)c1	104	94	-8	.
CCCSc1nnc(Nc2ccccc2OC)s1	106	95	19	.
COC(=O)c1ccc(C(c2cc3c(cc2O)OCO3)N2CCN(c3ccccc3)CC2)cc1 (stereo not given)	-0.2*	0.0*	-21	.
CCOC(=O)c1c(NC(=O)N2CC(CC)Oc3ccccc32)sc2c1CCCC2 (stereo not given)	.	.	-10	99

4 of the entries above in order of the GIV-Gai inh value, high to low:
| molecule | Sa growth inh second temp | GIV-Gai inh |
| --- | --- | --- |
| O=C1C(=O)N(CCCN2CCOCC2)C(c2ccccc2)/C1=C(\O)c1ccc(S(=O)(=O)N2CCOCC2)cc1 (stereo not given) | 93 | 106 |
| O=C(Nc1ccc(Br)cc1)C1CCN(S(=O)(=O)c2cccc3nsnc23)CC1 | 92 | 104 |
| Cc1nn(CCCC(=O)N(C)Cc2ccccc2)c(=O)c2cc3sccc3n12 | 92 | 101 |
| CC(Oc1ccccc1)C(=O)N1CCCCCC1 (stereo not given) | 78 | 99 |

Assay outcomes: PubChem, ICCB-Longwood Screening Facility, Harvard Medical School
